Ub-GFP proteasome = inhibits proteasome, raising ubiquitin-GFP reporter fluorescence. 67,000 tested, under 10 active. Ubiquitin-GFP reporter cells, proteasome inhibition, GFP fluorescence; response scale: untreated = 0%, 10 µM MG-132 = 100%. Potency, µM (doses to about 45.9 µM), without a hit: at the highest dose activation (GFP accumulation), usual class: activators. AID 526; active = well fitted activation curve with a large enough effect, not every such curve was filed as active; inconclusive = small, poorly fitted or top-dose-only effect, or another doubt; inactive = no such curve, though single readings can be large or run the other way; note: potency is the fitted concentration of half-maximal effect
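U2OS cells stably expressing ubiquitin(G76V)-GFP, seeded overnight in 0.5% FBS medium, were exposed to compounds (qHTS, 46 uM to 2.9 nM) for 4 hr at 37 °C. GFP-positive cells were counted by laser cytometry (488 ex/515 em), normalized between basal and 10 uM MG-132.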
HBB splice mod = alters splicing of the hemoglobin beta chain; HBB splicing reporter cell assay, activation; EGFP reporter with mutant IVS2-654 intron; response scale: normalised to 500 nM splice-correcting PNA; Potency, µM (series often up to 46.1 µM), for the others: at the top dose activation, actives largely listed as activators; actives 0.06% (n = 65,000); note: potency is the fitted concentration of half-maximal effect; 0% is about no effect
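Compounds were applied for 2 days to HeLa EGFP-654 cells, 500/well in Optimem with 2% FCS. The reporter's EGFP is disrupted by mis-splicing of beta-globin intron IVS2-654. Readout: summed well GFP fluorescence from 488 nm laser scanning; reference was 500 nM antisense […] 654 PNA.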
ERK AVP block = inhibitors of vasopressin-stimulated ERK signaling pathway; HEK293-V1b, vasopressin-stimulated pERK AlphaScreen; Potency, µM (titrated, usually from 57.5 µM), for the others: at the top dose activity, negative = inhibition, hits mostly inhibitors; actives 0.99% (n = 72,000); AID 995; note: potency is the fitted concentration of half-maximal effect; % is set by controls: 0 for no effect and ±100 for the full control effect; nearly all actives have a fitted effect of over 55% in size
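V1b-HEK293 cells; cpd 30 min 37C; 25 nM vasopressin 5 min; lyse 10 min; AlphaScreen beads 5 hr RT. Normalized to DMSO basal and 25 nM vasopressin; AC50 by Hill fit.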
Texas Red fluor = compound fluoresces in the Texas Red spectral region; Compound fluorescence, Texas Red channel, 547/618 nm; hits give high values; max dye-equivalent concentration, M; actives 0.06% (n = 59,000); in the data active = max dye-equivalent concentration above about 10 nM; inconclusive = between about 1.1 nM and that limit
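Fluorescence at ex 547/em 618 nm, normalized against an on-plate Texas Red standard series to give dye-equivalent concentration per compound concentration. Buffer 100 mM Tris, pH 8.0; 15 min RT incubation before CCD imaging.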
CRE Fsk mod = CRE-bla signaling modulation under forskolin stimulation | CHO CRE-bla reporter (cAMP response element driving beta-lactamase), forskolin EC10, beta-lactamase ratio | Potency, µM (series often up to 38.2 µM), inactives show at the highest dose activity change, negative = inhibition, actives largely listed as activators | actives 2.5% (n = 71,000) | AID 662; active = well fitted activation curve with a large enough effect in the signal ratio, with a control signal flat, not every such curve was filed as active; inconclusive = small, poorly fitted or top-dose-only effect, or effect the other way, or a change in a side signal; the % refers to the signal ratio; note: potency is the fitted concentration of half-maximal effect; % of control where 0% means no effect
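Beta-lactamase reporter under a cAMP responsive element in CHO cells; compounds tested in titration series against EC10 NKH 477, 3 h at 37 °C. Read-out: CCF4 FRET ratio 460nm/530nm (excitation 405nm) giving %Activity, fitted to AC50.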
Fluorescein autfl = compound fluoresces in the fluorescein spectral region. Compound autofluorescence, 480/540 nm, fluorescein-equivalent; hits give high values. max fluorescein-equivalent concentration, M. AID 593. actives 0.91% (n = 59,000); in the data active = max fluorescein-equivalent concentration above about 10 nM; inconclusive = between about 1.1 nM and that limit
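Compounds were pin-transferred into 100 mM Tris buffer, pH 8.0, and incubated 15 min at room temperature. Fluorescence was read at 480 nm excitation/540 nm emission. Signals were normalized to an on-plate six-point fluorescein standard curve as dye-equivalent concentration.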
GFP derepression = epigenetic GFP locus derepression in mouse cells | actives 0.09% (n = 68,000) | Potency, µM (doses to about 46.1 µM), without a hit: at the highest dose GFP derepression (activation) | mouse C127i GFP locus derepression, cytometry, 30 h; note: % of control where 0% means no effect
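Derepression screen: silenced CMV-GFP reporter in murine C127i cells, 30 h compound incubation at 37 C, washed cells imaged by laser-scanning cytometer to enumerate GFP-expressing objects of 20 to 120 um.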
Luciferase inh = blocks Photinus pyralis firefly luciferase activity; P08659; purified firefly luciferase, luminescence, 8 min; Potency, µM (doses to about 57.1 µM), without a hit: at the top dose activity change, negative = inhibition, usual class: inhibitors; actives 2.2% (n = 72,000); AID 411; note: potency is the fitted concentration of half-maximal effect; % is set by controls: 0 for no effect and ±100 for the full control effect; nearly all actives have a fitted effect of over 40% in size
Target sequence (P08659 whole entry, looked up): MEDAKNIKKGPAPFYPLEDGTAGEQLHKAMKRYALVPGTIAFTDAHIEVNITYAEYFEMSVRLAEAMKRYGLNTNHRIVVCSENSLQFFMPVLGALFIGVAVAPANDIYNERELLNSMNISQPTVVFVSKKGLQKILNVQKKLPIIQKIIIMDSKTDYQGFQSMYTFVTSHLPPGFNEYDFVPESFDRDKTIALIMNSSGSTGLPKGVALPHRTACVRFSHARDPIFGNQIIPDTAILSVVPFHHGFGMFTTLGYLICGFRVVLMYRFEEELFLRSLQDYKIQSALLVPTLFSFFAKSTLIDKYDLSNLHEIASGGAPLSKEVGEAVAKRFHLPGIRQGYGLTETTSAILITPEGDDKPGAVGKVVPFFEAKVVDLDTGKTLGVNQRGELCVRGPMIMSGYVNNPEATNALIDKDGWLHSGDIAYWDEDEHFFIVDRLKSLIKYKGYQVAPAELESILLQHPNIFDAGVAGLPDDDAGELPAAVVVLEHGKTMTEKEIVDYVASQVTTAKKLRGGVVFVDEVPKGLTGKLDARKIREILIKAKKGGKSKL
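Luminescence read-out after 8 min at room temperature; enzyme reaction used luciferin plus 10 uM ATP (linear range) in imidazole buffer pH 7.2 with KCl, MgCl2, Tween 20 and BSA. Each sample was run as a titration.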
* hit, by the source's call; i = inactive; ? = inconclusive; / = no result given; [ ] = another dose, or the depositor's remark. Unless noted, calls come from the whole dose curve; as a rule, active = well fitted curve in the direction sought with a large enough effect; inconclusive = small, poorly fitted or top-dose-only effect, or another doubt; inactive = no such curve, though single readings can be large; an effect the other way counts as inactive or inconclusive. A portion of the library; the hit share may differ from the screen's.

Below each SMILES: CRE Fsk mod, Fluorescein autfl, Luciferase inh, Texas Red fluor, Ub-GFP proteasome, ERK AVP block, GFP derepression, HBB splice mod
O=C(c1ccco1)N1CCN(c2nc(C3CC3)nc3sc4c(c23)CCCC4)CC1
→ ?, ?, 0%, i, 2%, 7%, 3%, -0.3%[57.5 µM]
O=C1CC(N2CCC(c3nc4ccccc4[nH]3)CC2)C(=O)N1Cc1ccccc1 (stereo unspecified)
→ -13%, i, 1%, ?, -9%, -11%, 0%, 0.4%
CC(=O)C1=C(O)C(=O)N(CCC(=O)O)C1c1cccc(F)c1 (stereo unspecified)
→ 5%, ?, 1%, i, 1%, 3%, -3%, /
CCn1c(COc2cccc(C)c2)nnc1SCC(=O)Nc1cccc(C(=O)O)c1
→ -10%, i, -1%, i, -3%, ?, 11%, 0.8%
COc1ccc(CNc2nc3c(c(=O)n(Cc4ccc(Cl)cc4)c(=O)n3C)n2C)cc1
→ ?, i, 2%, i, -8%, -10%, 0%, 2.8%[1.84 µM]
N#CC(C(=O)NC1CC1)c1nc2ccccc2nc1N1CCCC1 (stereo unspecified)
→ 5µM*, 1.8e-07M*, -36%, ?, -3%, -17%, -4%, 0.1%
CCN(CC)S(=O)(=O)c1cc(C(=O)n2cccn2)c(Cl)cc1Cl
→ 1%, i, 0%, i, 4%, -1%, 4%, -0.4%
Cc1nc2sc3c(c2c2nnc(SCC(=O)NCc4ccco4)n12)CCCC3
→ 13µM*, i, -4%, i, -6%, -19%, 6%, 0.0%[57.5 µM]
Cc1cc(C(=O)NCCCN2CCCC2=O)cs1
→ -3%, i, 1%, i, 1%, -4%, 0%, -0.3%
COC(=O)c1ccccc1N(C)S(C)(=O)=O
→ -4%, ?, 4%, i, 0%, 9%, 2%, 6.2%
CCCCOc1ncnc2c1[nH]c1ccc(F)cc12
→ 1µM*, i, -27%, i, -2%, -17%, 2%, 0.3%[57.5 µM]
COc1ccc(-c2cc(C(F)(F)F)nc(NCc3ccco3)n2)cc1OC
→ 2.5µM*, ?, 0%, i, 5%, -11%, -2%, 2.6%
CCOC(=O)Cn1c(=O)n(C2CCCC2)c(=O)c2ccccc21
→ -1%, i, -3%, i, -3%, 16%, -1%, -1.6%
COc1cccc(C(=O)Nc2cccc(OC(C)=O)c2)c1
→ 1%, ?, -24%, ?, -6%, 5%, -2%, 0.4%
CNc1oc(-c2cccc3ccccc23)nc1C#N
→ ?, i, 2%, ?, 0%, -6%, 3%, 5.2%[1.84 µM]
O=C(NCc1ccccc1)c1noc2c1CCCC2
→ -8%, i, -3%, i, 9%, 0%, 2%, -0.3%
Cc1cccc(-n2c(=O)[nH]c3c(C(N)=O)nc(CC(C)C)nc32)c1
→ 16%, i, 1%, i, -5%, ?, -2%, -0.6%
O=C(CSc1nnnn1-c1ccc2c(c1)OCCO2)Nc1nc2c(s1)CCCC2
→ -14%, i, 2%, i, -2%, -20%, 4%, -0.2%[57.5 µM]
Cc1ccc(OCc2nnc(SCC(=O)Nc3ccc4c(c3)OCCO4)n2Cc2ccco2)cc1
→ ?, ?, -8%, ?, 8%, -9%, 2%, -0.2%[57.5 µM]
CC(C)Sc1nc2sc3c(c2c2nnc(SCC(=O)NCc4ccco4)n12)CCCC3
→ ?, ?, 0%, i, /, -5%, 0%, 2.6%[0.369 µM]
CCC(=O)N1C(=O)CCN(C(C)=O)c2ccccc21
→ 3%, i, -1%, i, -7%, 4%, 0%, -0.7%
O=C(NCc1ccco1)c1nc2nc(-c3cccs3)cc(C(F)(F)F)n2n1
→ 15%, i, -2%, i, -1%, -7%, 0%, -0.1%[57.5 µM]
COCCn1c(SCc2cnc(-c3ccccc3)s2)nnc1-c1ccncc1
→ 0%, i, -3%, i, 1%, -1%, -2%, -0.4%[57.5 µM]
COc1ccc(CNC(=O)c2cc3c(=O)n4ccccc4nc3n(Cc3ccco3)c2=N)cc1
→ ?, 1.9e-08M*, -2%, i, 5%, -9%, ?, 3.0%
COc1ccccc1N1CCN(C(CNS(=O)(=O)c2ccc(C)cc2)c2cccnc2)CC1 (stereo unspecified)
→ ?, ?, 1%, i, 26%, -9%, 2%, -2.3%
CCN(CC)C(=O)CSc1nc(O)cc(=O)n1C
→ -3%, i, 0%, i, 2%, -14%, 0%, 0.1%
COc1ccc(C(=O)N2CCC[C@@]3(CCN(C(=O)Nc4cccc(C#N)c4)C3)C2)cc1
→ 0%, i, 0%[11.4 µM], i, 12%, 8%, -7%[9.22 µM], 1.2%
COc1nc(NCCc2ccc(OC)c(OC)c2)nc(OC)n1
→ ?, i, -1%, i, -4%, -25%, -2%, 4.0%
CCOc1ccccc1CNc1nc2nc3c(c(=O)n2[nH]1)CCC3
→ -2%, i, 1%, i, -3%, -16%, 2%, -2.3%
C=CCn1c(COc2ccccc2)nnc1SCC(=O)Nc1ccc(S(N)(=O)=O)cc1
→ -18%, ?, -1%, i, 0%, -13%, -2%, 2.7%[57.5 µM]

Sorted by the number under GFP derepression (falling): some entries from above.
SMILES	GFP derepression
CCN(CC)S(=O)(=O)c1cc(C(=O)n2cccn2)c(Cl)cc1Cl	4%
COc1ccccc1N1CCN(C(CNS(=O)(=O)c2ccc(C)cc2)c2cccnc2)CC1 (stereo unspecified)	2%
COc1cccc(C(=O)Nc2cccc(OC(C)=O)c2)c1	-2%

Other compounds follow.
Below each SMILES: CRE Fsk mod, Fluorescein autfl, Luciferase inh, Texas Red fluor, Ub-GFP proteasome, ERK AVP block, GFP derepression, HBB splice mod
Oc1ccc(C=Nc2cccc3ncccc23)c(O)c1
→ ?, ?, -6%, ?, 3%, ?, 2%, 12%[57.5 µM]
Cc1ccc(CNC(=O)c2ccccc2NS(C)(=O)=O)cc1
→ 3%, i, -2%, ?, 3%, -3%, 3%, -1.6%
COc1ccc(OCC(O)CON2C(=O)c3ccccc3C2=O)cc1 (stereo unspecified)
→ -3%, i, 2%, i, -1%, -5%, 3%, -1.6%
N#CCCN(CCC#N)C(=O)c1ccc2c(c1)OCO2
→ 0%, i, 1%, i, 5%, -1%, 0%, -2.2%
COC(=O)c1c(NS(C)(=O)=O)sc2c1CCCC2
→ 0%, i, 2%, ?, -3%, -16%, 4%, -0.7%
Cn1c(-c2ccc3c(c2)OCO3)cnc1NC(=O)CCC(=O)NCCc1ccccc1
→ -18%, ?, -9%, i, 4%, -23%, -1%, -1.9%
O=C(NCCCn1ccnc1)c1ccco1
→ 3%, i, 1%, i, 7%, -12%, 0%, -3.0%
CCOc1cc2[nH]c(=S)n(Cc3ccc(C)o3)c(=O)c2cc1OCC
→ 21%, i, 2%, i, 3%, 26%, 0%, -2.6%
N=c1sc2ccccc2n1-c1ccccc1
→ ?, i, 1%, i, 2%, -4%, -2%, -0.5%[57.5 µM]
CCn1c2ccccc2c2nc3cc(OC)c(OC)cc3nc21
→ 5µM*, ?, ?, ?, -3%, -23%, 4%, 0.4%
CC1=C(C(N)=O)C(c2cccc(OCc3ccccc3)c2)n2nnnc2N1 (stereo unspecified)
→ ?, i, -6%, i, 9%, 10%, 5%, 4.2%
O=C(CCCC(=O)OCC1CCCO1)OCC1CCCO1 (stereo unspecified)
→ 2%, i, 0%, i, 0%, 1%, 4%, 0.0%[57.5 µM]
CC1(C)OC(=O)C(C(c2ccccc2)C(C#N)C(N)=O)=C(O)O1 (stereo unspecified)
→ 6%, i, 1%, i, 5%, 8%, 0%, -0.8%
Cc1cc(=O)n2[nH]c(-c3ccc(F)cc3)cc2n1
→ 4%, i, ?, i, -4%, -8%, 0%, /
Cc1cc(C)c(S(=O)(=O)Nc2cccnc2)c(C)c1
→ -1%, i, 0%, i, 6%, -7%, -2%, 0.1%[57.5 µM]
Cc1nc(N2CCN(C(=O)c3ccco3)CC2)c2c3c(sc2n1)CCC3
→ ?, ?, 0%, ?, 5%, ?, 0%, -2.9%
COc1ccc(CNc2nc(-c3cccnc3)nn2C(=O)c2ccco2)cc1
→ 13%, i, 1%, i, 2%, -11%, -3%, -0.3%
Cc1ccc(Cl)cc1N1CCN(Cc2nnnn2Cc2ccco2)CC1
→ 4%, i, 1%, ?, 1%, 31%[activator], 0%, /
Nn1c(SCc2cccc(C(F)(F)F)c2)nnc1-c1ccco1
→ 13%, i, 0%, ?, -6%, 5%, 0%, -0.5%
Cc1nn(-c2ccc(Cl)cc2)c2[nH]c(=O)c(CNCc3ccc4c(c3)OCO4)cc12
→ 13%, ?, -3%, i, 6%, -24%, 0%, 4.6%[1.84 µM]
CC(=O)/C(C(=N)N1CCN(c2cccc(Cl)c2)CC1)=C(\C)O
→ -6%, i, 4%, i, -2%, -7%, 4%, -0.1%
COC(=O)c1cccc(C(=O)Nc2cnc3ccccc3c2)n1
→ 16%, i, -22%, i, 1%, -25%, 0%, -0.2%
CCOC(=O)N1CCC2(CC1)C(C#N)=C(N)Oc1c2c(C)nn1-c1cccc(Cl)c1
→ ?, ?, -1%, i, -3%, ?, 2%, -0.3%
O=C(NCc1ccc2c(c1)OCO2)c1cccc(N2CCCC2=O)c1
→ ?, i, 1%, i, -2%, -5%, 0%, -0.7%
Cc1ccc(-c2cnc(NC(=O)CCC(=O)N3CCCCC3)n2C)cc1
→ -1%, ?, 1%, ?, 4%, -8%, -1%, -0.2%
O=C(O)c1cc(O)ccc1-c1ccc(O)cc1
→ -4%, i, 1%, i, -4%, 24%, 1%, /

Compound profiles (already shown). Values in the order: CRE Fsk mod, Fluorescein autfl, Luciferase inh, Texas Red fluor, Ub-GFP proteasome, ERK AVP block, GFP derepression, HBB splice mod
Cc1ccc(Cl)cc1N1CCN(Cc2nnnn2Cc2ccco2)CC1 as listed: 4%, i, 1%, ?, 1%, 31%[activator], 0%, /
COC(=O)c1cccc(C(=O)Nc2cnc3ccccc3c2)n1 as listed: 16%, i, -22%, i, 1%, -25%, 0%, -0.2%

Screening results (PubChem BioAssay)
